fixLJ activator = B. multivorans fixK reporter activation; B. multivorans fixK-promoter GFP reporter, 18 h; hits give high values; z-score (concentration not given with the values); 29,000 tested, 0.3% active;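 active = replicate mean overnight rise in green fluorescent reporter signal, 3 or more SD over negative controls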;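 note: score is relative to vehicle wells of the plate; 300 nL library stock went into each well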
Starred values were filed as active, the others as inactive; & = joins results of further samples. Not all compounds are listed; count on the stated rates, not on these rows.

SMILES	fixLJ activator
CCCCc1ccc(NC(=O)N2CCCOC(Cn3cccn3)C2)cc1 (stereo not drawn)	-0.92
CSCC(=O)N1CCc2ccc(S(=O)(=O)N(C)Cc3nccs3)cc2C1	-1
COc1ccc(-c2noc(CNC(=O)c3ccc(OC)cc3OC)n2)cc1	-1.3
CC(C)Cc1cc(C(=O)N(C)Cc2nnc(-c3ccccc3)o2)nc(=O)[nH]1	-0.87
COc1ccc(Nc2nn3c(=O)c4cc5c(cc4nc3s2)OCO5)c(OC)c1	2.5
N#Cc1cc2c(nc1SCC(=O)Nc1cccc(C(F)(F)F)c1)C1CCN2CC1	-2
COc1cccc(NC(=O)CCc2c(C)nc3ncnn3c2C)c1	-0.19
COc1ccc(N2CCN(C(=O)c3ccc4c(c3)N(Cc3cc(C)ccc3C)C(=O)c3ccccc3S4=O)CC2)cc1 (stereo not drawn)	0.97
N#Cc1cc2n(n1)CCCN(C(=O)NC1c3ccccc3CC1O)C2 (stereo not drawn)	-0.16
CS(=O)(=O)N1CCc2[nH]cnc2C12CCN(C(=O)c1cnccn1)CC2	0.85
CCCN(CCC)CCNC(=O)CN1C(=O)COc2ccc(S(=O)(=O)N3CCOCC3)cc21	-0.53
Cc1nc2scc(C)n2c(=O)c1S(=O)(=O)Nc1cccc(O)c1	-1.4
COCCNC(=O)Cn1c(=O)n(CCCCCC(=O)NCc2ccccc2Cl)c(=O)c2sccc21	-0.99
Cc1c(CC(=O)N2CCCCC2)c(=O)oc2c(C)c(O)ccc12	-1.7
CCN1C(C(=O)c2ccccc2)=C(OC(=O)c2ccc(OC)cc2)c2ccccc2S1(=O)=O	-0.04
Cc1ccc(NC(=O)CN(C)C)c(NC(=O)c2ccc(S(C)(=O)=O)cc2)c1	0.75
COc1cc(NC(=O)Cn2c(=O)n(CC3CCCO3)c(=O)c3cc(OC)c(OC)cc32)cc(OC)c1 (stereo not drawn)	0.17
O=C(C1CCN(S(=O)(=O)c2ccc(Br)s2)CC1)N1CCN(c2ccc(F)cc2)CC1	-0.62
CCCc1cncnc1N1CCCC(c2nnc(Cn3ccnc3)n2C)C1 (stereo not drawn)	0.39
O=C(c1cccc(N2CCCC2=O)c1)N1CCC(CCn2cccn2)CC1	-4

Copied from the entries so far for reference:
SMILES	fixLJ activator
CCCc1cncnc1N1CCCC(c2nnc(Cn3ccnc3)n2C)C1 (stereo not drawn)	0.39
O=C(c1cccc(N2CCCC2=O)c1)N1CCC(CCn2cccn2)CC1	-4

The main list resumes; the 5 compounds before the break are reprinted first.
SMILES	fixLJ activator
Cc1ccc(NC(=O)CN(C)C)c(NC(=O)c2ccc(S(C)(=O)=O)cc2)c1	0.75
COc1cc(NC(=O)Cn2c(=O)n(CC3CCCO3)c(=O)c3cc(OC)c(OC)cc32)cc(OC)c1 (stereo not drawn)	0.17
O=C(C1CCN(S(=O)(=O)c2ccc(Br)s2)CC1)N1CCN(c2ccc(F)cc2)CC1	-0.62
CCCc1cncnc1N1CCCC(c2nnc(Cn3ccnc3)n2C)C1 (stereo not drawn)	0.39
O=C(c1cccc(N2CCCC2=O)c1)N1CCC(CCn2cccn2)CC1	-4
COc1cc2c(C(=O)N3CCN(c4ccc(F)cc4)CC3)cn(CC(C)C)c(=O)c2cc1OC	-1.3
COc1ccc(S(=O)(=O)N(CCc2ccccc2)CC(=O)Nc2cc(Cl)ccc2C)cc1	0.88
COc1ccc(-n2c(=O)c3ccccc3n(CC(=O)NCCc3ccc(OC)c(OC)c3)c2=O)cc1	-0.46
CCOC(=O)c1c(NC(=O)CCCOc2ccc(C(C)(C)C)cc2)sc2c1CCC2	-3.4
CCCn1cc(C(=O)NCCc2nc(C)c(Cl)s2)c(C)n1	0.81
COCCc1noc(C(C)NC(=O)Cc2ccccc2C(F)(F)F)n1 (stereo not drawn)	-0.69
COc1ccc(NC(=O)Cn2cc(C(=O)c3ccc(C)c(C)c3)c(=O)c3cc(OC)ccc32)cc1	-1.6
COc1ccc(OCCCn2c(C3CC(=O)N(c4ccc(F)cc4)C3)nc3ccccc32)cc1 (stereo not drawn)	0.64
Cc1ccc(-c2csc(=Nc3ccc(F)cc3)n2Cc2ccc3c(c2)OCO3)cc1C	0.31
COc1ccccc1N1CCN(C(=O)CN2C(=O)COc3ccc(S(=O)(=O)N4CCOCC4)cc32)CC1	-1
COc1cc(-n2c(=O)c3ccccc3n(Cc3cccc(Cl)c3)c2=O)cc(OC)c1OC	-1.8
COc1ccccc1CN(CC(=O)O)C(=O)c1ccc2cccc(F)c2n1	-1
Nc1nc(CCCNC(=O)COCc2ccccc2)cs1	-3.2
COc1ccc(NC(=O)CN(C)S(=O)(=O)c2ccc3nc(C)sc3c2)cc1Cl	-1.3
COc1ccc(Cn2cc(C(=O)c3ccc(C)cc3)c(=O)c3cc(OC)c(OC)cc32)cc1	-0.61
COc1ccc(C2CN(c3ccccn3)CC2NC(C)=O)cc1 (stereo not drawn)	-0.02
CCOc1ccc(S(=O)(=O)N2CCN(c3cccc(C(F)(F)F)c3)CC2)cc1OCC	-0.58
COC(C)(C)CNC(=O)N(CCCO)Cc1ccc(C)cc1	-1
CCn1c(C(=O)NCc2ccccc2C)cc2oc3ccccc3c21	1.3
Cc1ccc(NC(c2cccc(Cl)c2)c2nnc(-c3ccccc3)o2)cc1F (stereo not drawn)	-0.74

Fetched by compound from the list above, two records:
SMILES	fixLJ activator
COc1ccc(NC(=O)CN(C)S(=O)(=O)c2ccc3nc(C)sc3c2)cc1Cl	-1.3
COc1ccc(C2CN(c3ccccn3)CC2NC(C)=O)cc1 (stereo not drawn)	-0.02

The main list resumes; the three compounds before the break are reprinted first.
SMILES	fixLJ activator
COC(C)(C)CNC(=O)N(CCCO)Cc1ccc(C)cc1	-1
CCn1c(C(=O)NCc2ccccc2C)cc2oc3ccccc3c21	1.3
Cc1ccc(NC(c2cccc(Cl)c2)c2nnc(-c3ccccc3)o2)cc1F (stereo not drawn)	-0.74
COc1ccc(C(=O)Nc2ccc3nc4n(c(=O)c3c2)CCCCC4)cc1OC	-0.62
COc1ccc(-n2nnnc2SCC(=O)NCCc2ccccc2)cc1	-2.9
COc1ccccc1CNC(=O)CCCCn1c(=O)c2ccccc2n(CC(=O)Nc2c(C)cc(C)cc2C)c1=O	-1.4
CCOCCCNC(=O)CCC(=O)NNc1nc2ccccc2c2nc(C)nn12	-0.33
CCCCN1CCN(c2cc(C3CC(N)C3)nc(N)n2)CC1=O (stereo not drawn)	0.04
COc1cccc(CCNC(=O)c2ccc(Cn3c(SCc4ccccc4)nc4cccnc43)cc2)c1	-1.6
Cc1c(Cl)cccc1NC(=O)N1CCC[C@]2(CCCC2O)C1 (stereo partly drawn)	-0.52
COc1ccc(OC)c(CCNC(=O)c2ccc3c(c2)N(Cc2ccccc2)CCS3)c1	1.5
Cc1ccc(-n2c3nc(=O)[nH]c(=O)c-3cc3c(C)nn(-c4ccccc4)c32)cc1Cl	-0.38
CCc1ccc2oc(-c3cccc(NC(=O)c4ccc(-c5cccc([N+](=O)[O-])c5)o4)c3)nc2c1	-3
Cc1nnc(CN(Cc2ccccn2)CC2CCCO2)s1 (stereo not drawn)	-2
COc1ccc(C(=O)N2CC(=O)Nc3ccc(C)cc3C2c2ccc(F)cc2)c(OC)c1 (stereo not drawn)	0.61
COc1ccc(C(CC(=O)O)NC(=O)c2cc3ccccc3oc2=O)cc1OC (stereo not drawn)	-2.4
CCOCCCN1C(=O)c2[nH]nc(-c3ccccc3O)c2C1c1ccc(CC)cc1 (stereo not drawn)	-0.49
Cc1ccc(C)c(NC(=O)CN2C(=O)COc3ccc(Cl)cc32)c1	-1.4
CCn1nc(C(=O)N2CC3CCC(C2)N(CC(=O)N(C)C)C3=O)cc1C (stereo not drawn)	1.8
CCCCn1c(CNC(=O)C23CC4CC(CC(C4)C2)C3)nnc1SCC(=O)Nc1ccccc1	-1.4
Cc1ccc(C)c(NC(=O)Nc2cc3c(cc2N2CCCCC2)n(C)c(=O)n3C)c1	-1.5
CCc1noc2nc(C)n(CC(=O)O)c(=O)c12	-0.34
COc1ccc(CCn2c3c(c(=O)[nH]c2=O)C(NC(=O)c2ccccc2F)(C(F)(F)F)C(=O)N3)cc1OC (stereo not drawn)	-0.3
CC1=C(C(=O)Nc2cccnc2)C(c2ccccc2)n2nc(SCc3ccccc3)nc2N1 (stereo not drawn)	-0.67
COC(=O)c1nnn(CC(=O)Nc2ccc(Br)c(C)c2)c1N	1.1
Nc1ccc(C(=O)O)c(O)c1	-0.68&-0.3&-0.14
C[C@]12CCC(=O)C=C1CC[C@@H]1[C@@H]2[C@@H](O)C[C@@]2(C)[C@H]1CC[C@]2(O)C(=O)CO	-2.8
O=C(CN1CC2COC[C@]2(C(=O)O)C1)NC1CCCCCC1 (stereo partly drawn)	-0.15
COc1cccc(SCC(=O)NCc2csc(-c3cnccn3)n2)c1	0.12
CCCc1cnc(C)nc1NCc1cccc(-n2cccn2)c1	0.86
C[N+](C)(C)C[C@H](O)CC(=O)[O-]	-0.07
CCOc1cccc(C(=O)Nc2ccc(NC(=O)c3ccc(Br)cc3)cc2)c1	0.59
Cc1cc(C)n(Cc2ccc(C(=O)NCc3nc(-c4cnccn4)n[nH]3)cc2)n1	-1.3
Cc1ccc(NC(=O)CN2C(=O)C(c3ccc(F)cc3)=NC23CCCCCC3)c(C)c1	1.5
Cc1cc(C)c2oc(-c3ccc(NC(=O)COc4ccccc4C)cc3)nc2c1	-0.06
O=C(NCCc1ccccc1)c1cc(-c2cccc(Cl)c2)on1	0.26
O=C(Nc1ccc(Cl)cc1C(=O)c1ccccc1)c1cc(Cl)cc(Cl)c1	1
Cc1ccc(C)c(Cn2c3ccccc3c3cnn(CC(=O)NC(C)CCc4ccccc4)c(=O)c32)c1 (stereo not drawn)	-4.2
CC(C)c1nnc(NC(=O)c2nc(SCc3ccc(F)cc3)ncc2Cl)s1	0.35
CCc1ccccc1NC(=O)Cn1c(=O)n(CCc2ccccc2)c(=O)c2sc3ccccc3c21	-1.5
CC(C)(O)CCc1cccc(C(=O)NCCSc2ncn[nH]2)c1	1.2
CCN(CCCNC(=O)c1cc2cc3cc(OC)ccc3nc2s1)c1cccc(C)c1	-1.6
Cc1nnc(SCC(=O)NC2CCN(c3ncccc3C#N)CC2)o1	-1.5
CC(=O)N1CCc2cc(S(=O)(=O)NC(CC(C)C)C(=O)NCCc3cccc(C)c3)ccc21 (stereo not drawn)	-0.79
Cc1cc(NC(C)CCCC(C)(C)O)n2nc(C)c(C)c2n1 (stereo not drawn)	-3.5
CCOC(=O)C1CCN(C(=O)c2nn(-c3ccc(OC)c(Cl)c3)c(=O)c3c2c2ccccc2n3C)CC1	-1.2
CC(C)Cc1noc(CN(C)C(=O)NCc2snnc2C(C)C)n1	-1.2
CC(=O)Nc1cccc(-c2ccccc2OCCn2ccnc2)c1	-1.2
CC(C)(C)OC(=O)N1CCc2nc(N3CCN(c4ncccn4)CC3)ncc2C1	-1.5
COc1ccc(CCNC(=O)c2cc3c(s2)-c2c(C)cccc2OC3)c(OC)c1	-0.14
CCOc1ccc(C(=O)c2c(N)c(-c3nc(-c4ccc5c(c4)OCO5)cs3)c3ccccn23)cc1	-1.9
CCc1ccccc1NC(=O)Nc1c(C)n(C)n(-c2ccccc2)c1=O	-0.16
CCc1ccccc1NC(=O)Cn1c(=O)n(CCCCCC(=O)NCc2ccc(C)cc2)c(=O)c2sccc21	-1.5
O=C(C1CCOCC1)N1CC(O)C(Cc2ccnc3ccccc23)C1 (stereo not drawn)	-0.97
CCN(CC1CCOCC1)C(=O)C1CC(=O)Nc2ccc(OC)cc21 (stereo not drawn)	0.18
CC(C)CC(=O)Nc1ccc(NC(=O)C2CCN(C(=O)C3CCC3)CC2)cc1	-0.21
COc1ccc(-c2nc(CSCC(=O)N3CCN(c4ccc(OC)cc4)CC3)c(C)o2)cc1	-0.09
CCOc1ccc2nc(NC(=O)c3ccccc3)sc2c1	-1
CCCOc1ccc(C(=O)Nc2c(C(=O)c3ccc(C)cc3)oc3ccccc23)cc1	-0.18
CCOc1ccc(-n2c(=O)c3sc4ccccc4c3n(Cc3ccc(F)cc3)c2=O)cc1	1
COc1ccc2c(c1)Cc1sc(NC(=O)c3ccc(Cl)cc3)nc1-2	-2.8
CN(CCc1nc2ccc(F)cc2[nH]1)C(=O)C1CCCN1Cc1ccccc1 (stereo not drawn)	0.99
Cc1ccc(NC(=O)Cn2nnc3sc4c(c3c2=O)CCCC4)c(C)c1	-1.1

The list continues.
SMILES	fixLJ activator
CCN(C(=O)c1cc2c(s1)-c1c(C)cccc1OC2)c1cc(C)ccc1C	-1.2
CCN(CC)CCNC(=O)N(C)Cc1nc2ccc(Cl)cc2[nH]1	-0.95
COc1ccc(OC2CCN(C(C)=O)CC2)c(C(=O)NCc2c(C)noc2C)c1	-0.83
CC[C@@]1(O)C[C@H](O[C@H]2C[C@H](N(C)C)[C@H](O[C@H]3C[C@H](O)[C@H](O[C@H]4CCC(=O)[C@H](C)O4)[C@H](C)O3)[C@H](C)O2)c2c(cc3c(c2O)C(=O)c2c(O)cccc2C3=O)[C@H]1C(=O)OC	-0.33
COc1ccc(Nc2cc(C(=O)NCCCN(C)C3CCCCC3)c3ccccc3n2)c(OC)c1	-1.4
CCc1n[nH]c(CN2CCCC2c2nc(-c3cccnc3)no2)n1 (stereo not drawn)	0.25
CS(=O)(=O)c1ncc(Cl)c(C(=O)Nc2c(C(=O)Nc3ccccc3)oc3ccccc23)n1	-0.87
O=C1CC(c2ccc(Cl)cc2)Sc2nc(-c3ccc(F)cc3)nn21 (stereo not drawn)	-0.8
Cc1ccc(C)c(N2CCN(c3nc4ccc(C(=O)c5ccccc5)cc4n4cnnc34)CC2)c1	-0.6
CN(Cc1ccc2nsnc2c1)Cc1ncccc1C(=O)O	-0.81
CC(C)C(NS(=O)(=O)N1CCOCC1)c1nccn1C (stereo not drawn)	-0.98
COc1ccc(/C=C(/C#N)c2nc(-c3cc4ccccc4oc3=O)cs2)cc1	0.77
Cc1cc(Nc2ccccc2C)c2cccc(C)c2n1	-0.86
Cc1ccccc1OCCCn1c(-c2ccc(Cl)cc2)nc2ccccc2c1=O	-1
CCc1ccccc1NC(c1nnc(-c2cccc(F)c2)o1)c1ccc(F)cc1Cl (stereo not drawn)	0.17
